# Screening results deposited in PubChem by Broad Institute.
# STK33 kinase inh – inhibitors of purified STK33 kinase, primary screen, biochemical, ADP-Glo luminescence, homogeneous, cell-free | MBP phosphorylation | inhibition, % at 10 µM | hit rate 0.073% among 320,000;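 active = inhibition at or above 25%, using the most active replicate where run in duplicate; inactive = inhibition below 25%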
# Target sequence (Q9BYT3 whole entry, looked up): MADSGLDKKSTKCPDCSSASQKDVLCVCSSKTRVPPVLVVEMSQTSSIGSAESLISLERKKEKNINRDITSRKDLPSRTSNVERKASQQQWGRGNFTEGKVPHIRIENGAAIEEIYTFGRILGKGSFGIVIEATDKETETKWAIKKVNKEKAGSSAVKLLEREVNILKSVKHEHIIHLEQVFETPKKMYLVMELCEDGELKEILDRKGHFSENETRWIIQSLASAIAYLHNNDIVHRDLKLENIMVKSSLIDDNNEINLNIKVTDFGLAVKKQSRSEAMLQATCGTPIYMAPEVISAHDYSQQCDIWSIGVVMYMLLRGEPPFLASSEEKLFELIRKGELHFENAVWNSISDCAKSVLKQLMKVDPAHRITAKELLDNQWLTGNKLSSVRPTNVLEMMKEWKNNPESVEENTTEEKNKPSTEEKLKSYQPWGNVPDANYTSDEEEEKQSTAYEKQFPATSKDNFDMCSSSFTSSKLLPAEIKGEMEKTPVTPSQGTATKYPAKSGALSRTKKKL
# * hit, by the source's call. These rows are one share of the data, and most or all hits are left out here.
# Start of the listing, in advance:
item	SMILES	STK33 kinase inh
1	Cc1c(/C(O)=C2/C(=O)C(=O)N(Cc3cccnc3)C2c2cccs2)cnn1-c1ccccc1 (configuration not stated)	-1.7
2	CC(=O)c1ccc(NC(=O)Cn2cnc(S(=O)(=O)N3CCc4ccccc43)c2)cc1	1.1

# Results, from the start:
item	SMILES	STK33 kinase inh
1	Cc1c(/C(O)=C2/C(=O)C(=O)N(Cc3cccnc3)C2c2cccs2)cnn1-c1ccccc1 (configuration not stated)	-1.7
2	CC(=O)c1ccc(NC(=O)Cn2cnc(S(=O)(=O)N3CCc4ccccc43)c2)cc1	1.1
3	Cc1cc(Oc2ccc(Br)cc2)nc(SCC(=O)c2ccccc2)n1	-2.0
4	Cc1nc(Cc2nnc(SCc3nc(N)nc(Nc4ccccc4C)n3)o2)cs1	-1.7
5	Cc1ccc(C(c2nnnn2CCC(C)C)N2CCN(C)CC2)cc1 (configuration not stated)	-0.2
6	COC(=O)c1cccc(NC(=O)CSc2nc(C)cc(=O)[nH]2)c1	-1.0
7	Cc1ccc(NC(=O)N2CCC(NC(=O)c3cccc(C)c3)CC2)cc1	-1.3
8	Cc1ccsc1/C=N/NC(=O)c1ccncc1	1.2
9	CCOC(=O)C1CCCN(C(=O)C2CCN(S(=O)(=O)N3CCC4(CC3)OCCO4)CC2)C1 (configuration not stated)	-0.7
10	COC(=O)c1ccc(NC(=O)C(=O)N2CCCC2)cc1	-1.1
11	CN(C)c1ccc2c(c1)OC(N)=C(C#N)C2c1cccc(F)c1 (configuration not stated)	1.0
12	COc1cc(-c2cc3nc4ccccc4n3c(N)c2C#N)cc(OC)c1OC	0.8
13	O=C(Nc1cccc(C(F)(F)F)c1)Nc1ccc2[nH]c(=O)[nH]c2c1	1.0
14	COc1nc(-c2ccccc2)nc(C)c1CC(=O)O	0.1
15	Cc1cc(NC(=O)c2cccc(C)c2[N+](=O)[O-])no1	0.5

# Reprinted from the part before: three compounds, then new ones.
item	SMILES	STK33 kinase inh
13	O=C(Nc1cccc(C(F)(F)F)c1)Nc1ccc2[nH]c(=O)[nH]c2c1	1.0
14	COc1nc(-c2ccccc2)nc(C)c1CC(=O)O	0.1
15	Cc1cc(NC(=O)c2cccc(C)c2[N+](=O)[O-])no1	0.5
16	Cc1cc(OCC(=O)NCCN2CCOCC2)cc(C)c1Br	-1.0
17	COc1ccc(CN2CCOCC2)cc1OC	-0.4
18	O=C(CSc1ccccn1)N/N=C/c1ccccc1[N+](=O)[O-]	-1.1
19	Cc1ccccc1NC(=O)C(C)OC(=O)c1ccccc1C(=O)N(C)c1ccccc1 (configuration not stated)	-1.9
20	COc1ccc(C2NC(=O)NC3=C2C(=O)CCC3)cc1 (configuration not stated)	1.4
21	CN(Cc1nc2ccccc2n1C)S(=O)(=O)c1ccc(F)cc1	6.9
22	O=C(Cn1cnc2ccccc2c1=O)NCCC(=O)Nc1ccc2c(c1)OCO2	-1.6
23	CC1=NCCN1CCNC(=O)Nc1ccc(F)cc1	-1.6
24	CN(C)CCNc1nc2c(c(=O)[nH]c(=O)n2C)n1CCCc1ccccc1	-1.3
25	C=CCn1c(Cc2cccs2)nnc1SCC(=O)c1cccc(Br)c1	2.9
26	COc1ccc(S(=O)(=O)N(C)CC(=O)NCCC2=CCCCC2)cc1C	-2.5
27	CCN(C(=S)Nc1ccc(C(C)=O)cc1)C1CCCCC1	-1.2
28	Fc1ccc(/C=N/n2c(C3CCCCC3)n[nH]c2=S)cc1	1.8
29	O=C(Nc1ncc2c(n1)-c1ccccc1CC2)C1CC1	-0.7
30	CN(C)NC(=O)C(NC(=O)c1ccc(N)cc1)C12CC3CC(CC(C3)C1)C2 (configuration not stated)	-1.1
31	CCOc1ccc(NC(=O)C2CC(=O)N(C(C)C)C2)cc1 (configuration not stated)	-0.7
32	C=CCn1c(SCc2cc(=O)n3ccsc3n2)nc2cc(Cl)ccc2c1=O	-0.6
33	Brc1ccc(-c2nnc3sc(CNCc4ccc5c(c4)OCO5)cn23)cc1	-0.4
34	CCN(CC)S(=O)(=O)c1ccc(-c2nnc(SCc3nnc(-c4ccccc4)o3)o2)cc1	0.0
35	COc1ccccc1N1CCN(/N=C/c2ccc(Cl)c([N+](=O)[O-])c2)CC1	0.4
36	O=C(c1cnccn1)N(c1ccccc1)C1(C(=O)NC2CCCCC2)CCCCC1	0.2
37	O=C(NC1CCCCC1)NC1CCN(S(=O)(=O)c2ccc3c(c2)OCCO3)CC1	-0.6
38	O=C(NC(=S)Nc1nc(-c2cccc([N+](=O)[O-])c2)cs1)c1ccccc1Cl	-0.9
39	O=C(Cc1ccccc1)NC(Nc1ccccc1)C(Cl)(Cl)Cl (configuration not stated)	-0.6
40	NC(=O)C1CCN(c2oc(-c3ccccc3F)nc2S(=O)(=O)c2ccc(Cl)cc2)CC1	-1.2
41	COc1ccc(-c2csc3ncnc(NCCO)c23)cc1	3.3
42	O=C(Nc1ccc(-n2nncc2-c2ccco2)cc1)c1ccc(F)cc1	1.3
43	COC(=O)c1cc(OC)c(OC)cc1NC(=O)c1ccc(OC)c(OC)c1	0.0
44	O=C(CN1CCCC1)Nc1sc2c(c1C(=O)Nc1ccc(Br)cc1)CCC2	-1.9
45	CCn1c(/C=C/Nc2ccccc2)[n+](CC)c2ccc(Cl)cc21	-1.2
46	Nc1ccccc1C(=O)NNc1ncc(C(F)(F)F)cc1Cl	-1.4
47	O=C(CSc1nc(C2CC2)nc2ccccc12)NCc1ccc2c(c1)OCO2	-1.6
48	Cc1ccc(-c2nc(C)sc2CC(=O)Nc2nnc(C)s2)cc1	-1.8
49	C/C(=N\NC(=O)c1cc(-c2ccccc2C)nc2ccccc12)c1cccnc1	1.3
50	COC(CN(C(=O)CCl)C(C(=O)NC1CCCC(C)C1C)c1ccc(C)cc1)OC (configuration not stated)	-0.9
51	CCN(CC)c1ccc(/C=C/c2cccc[n+]2C)c(OC)c1	-0.2
52	O=S(=O)(Nc1ccc(F)cc1)N1CCOCC1	-1.3
53	C[C@H](NC(=O)[C@@H]1CSC2c3ccccc3C(=O)N21)C(=O)NCc1c(F)cccc1Cl (some centres not stated)	-1.6
54	COC(=O)c1cc(S(=O)(=O)NCC2CCN(Cc3ccc(Cl)cc3)CC2)c[nH]1	-0.2
55	C[C@H]1C=C(C(=O)O)O[C@@H](OCc2ccc(CO)cc2)C1	-2.1
56	Cc1ccc(C(=O)N2CCC(C(=O)NC3CCCC3)CC2)cc1	-2.3
57	COC(=O)c1ccc(N2CCOCC2)c(NC(=O)c2ccc3c(c2)OCCO3)c1	1.0
58	CC(OC(=O)C1CCC1)C(=O)Nc1cc(Cl)cc(Cl)c1 (configuration not stated)	-1.1
59	O=S1(=O)CCOC[C@H](CC2CCCCC2)N1Cc1ccc(Cl)cc1	4.5
60	COc1ccccc1N1CC(C(=O)Nc2nnc(SCc3cccnc3)s2)CC1=O (configuration not stated)	1.6

# Some of the entries so far, as labelled records.
55. C[C@H]1C=C(C(=O)O)O[C@@H](OCc2ccc(CO)cc2)C1
  STK33 kinase inh = -2.1

56. Cc1ccc(C(=O)N2CCC(C(=O)NC3CCCC3)CC2)cc1
  STK33 kinase inh = -2.3

57. COC(=O)c1ccc(N2CCOCC2)c(NC(=O)c2ccc3c(c2)OCCO3)c1
  STK33 kinase inh = 1.0

# Additional entries follow.
nr	Structure	STK33 kinase inh
61	Brc1ccc(CSc2nnc(-c3ccccn3)n2Cc2ccco2)cc1	0.3
62	CCC(CC)NCCOC(=O)c1ccc([N+](=O)[O-])cc1	-1.0
63	CCOc1ccccc1C(=O)N/N=C/c1cccc2cccnc12	0.6
64	CCn1ccnc1CN(C)C(=O)c1cc(COc2ccc(-n3cncn3)cc2)on1	-0.2
65	CCCc1nnc(NC(=O)c2cc3ccccc3o2)s1	-1.9
66	O=C(CCC(=O)Nc1ccccc1)NNC(=O)c1ccco1	-1.0
67	Cc1cc(-c2ccc(C)c(S(=O)(=O)NCC3CCN(Cc4ccccc4F)CC3)c2)on1	-0.4
68	O=C(CCC(=O)c1ccc(-c2ccccc2)cc1)Nc1cccnc1	-1.4
69	COc1cc2c(C(=O)N3CCCc4ccccc43)cn(C)c(=O)c2cc1OC	-0.5
70	CC(=O)Nc1ccc(Oc2ncccn2)cc1	-0.3
71	CN(C)c1ccc(S(=O)(=O)NCC(=O)NCC2CCCCC2)cc1[N+](=O)[O-]	1.5
72	Cc1ccc(CNC(=O)CCCc2nc3ccccc3s2)cc1	0.1
73	CCOC(=O)c1c(NC(=O)CCC(=O)NCc2ccco2)sc2c1CCCC2	0.4
74	O=C(CSc1nnc(NC(=O)c2ccccc2F)s1)NCC1CCCO1 (configuration not stated)	0.7
75	CCOc1cc(-c2nc3n(c(=O)c2C#N)CCS3)ccc1O	0.1
76	CC(C)C(=O)NC(=S)Nc1c(Cl)ccc2nsnc12	0.5
77	N#Cc1cn(CC(=O)NCC2CCCO2)c2ccccc12 (configuration not stated)	-1.8
78	COc1ccccc1N1CCN(C(=O)Nc2ccc(F)c(Cl)c2)CC1	-1.1
79	C=CCNc1nc(N)c([N+](=O)[O-])c(NCc2ccccc2)n1	1.0
80	NC(=O)c1ccc(NC(=O)CN2CCOCC2)cc1	-0.6
81	Cc1cc(OCC(=O)NC2CCN(Cc3ccccc3)CC2)c2c(C)cc(=O)oc2c1	0.2
82	CCCCN(C)CCNC(=O)c1cc2c(-c3ccccc3F)nn(C)c2s1	2.8
83	O=C1CCc2cc(S(=O)(=O)Nc3ccccc3F)cc3c2N1CCC3	2.2
84	CC1CN(c2ccc(S(=O)(=O)N3CCCC3)cn2)CC(C)O1 (configuration not stated)	-0.5
85	CCOc1ccc(N=C(NC#N)SCC)cc1	-0.5
86	CCOC(=O)/C(=N/Nc1ccc(Cl)cc1)S(=O)(=O)c1ccccc1	-2.2
87	CCC(=O)N/N=C/c1ccc(OS(=O)(=O)c2ccccc2)cc1	0.3
88	O=C(NCCCN1CCCC1)Nc1ccc(F)cc1	-0.4
89	Cc1nc(N/N=C/c2ccccc2)nc(N(C)c2ccccc2)c1[N+](=O)[O-]	0.7
90	Cc1ccc(C)c(S(=O)(=O)N/N=C/c2ccc(N3CCOCC3)cc2)c1	-0.1
91	COc1ccc(C2C(C(N)=O)=C(C)Nc3nc(CCCO)nn32)cc1OC (configuration not stated)	0.1
92	N#Cc1ccc(N/N=C/c2cn(-c3ccccc3)nc2-c2ccccc2)c([N+](=O)[O-])c1	-2.0
93	O=C(NCCc1ccc(S(=O)(=O)N2CCCC2)cc1)c1cccs1	0.7
94	CCCOC(=O)c1ccc(NC(=O)C2C3CCC(C3)C2C(=O)O)cc1 (configuration not stated)	-1.0
95	CCOc1ccccc1NC(=O)Nc1ccc2c(c1)CCC2	-1.4
96	CN1C(=O)/C(=C/C=C2/CCCN2C)N(C)C1=S	0.4
97	CCN(CC)S(=O)(=O)c1ccc(Cc2ncc(C(F)(F)F)cc2Cl)s1	-2.2
98	Cc1ccc(C)c(N2CCN(C(=O)c3cc(S(=O)(=O)N4CCOCC4)ccc3F)CC2)c1	-0.9
99	Cc1cc(C)c(NC(=O)NC(=O)c2ccc(F)cc2)c(C)n1	-3.5
100	CCOc1cccc2sc(N(CCN(CC)CC)C(=O)c3cccc([N+](=O)[O-])c3)nc12	0.0
101	C=CCn1c(SCc2nc3sc(C(=O)O)c(C)c3c(=O)[nH]2)nnc1-c1ccc(F)cc1	-1.5
102	COc1ccc(CCNC(=O)CSc2nc3ncccc3[nH]2)c(OC)c1	-1.5
103	CCN(CC)S(=O)(=O)c1ccc(N2CCCC2)c(NC(=O)c2ccccc2OC)c1	0.8
104	COc1ccc(NC(=O)C(Sc2ccccc2)c2ccccc2)c(OC)c1 (configuration not stated)	-1.2
105	CCN(CC)CCCN1C(=O)CSC1c1ccc([N+](=O)[O-])cc1 (configuration not stated)	-2.4
106	OCCNc1nc2ccccc2n1CC(O)c1ccccc1 (configuration not stated)	-0.9
107	COCCn1cc(C(=O)NCCCOC(C)C)c2c3ccccc3n(C)c2c1=O	-0.6
108	COC(=O)/C=C1\C(=O)N(c2nc3ccccc3s2)C(=S)N1c1ccc(F)cc1	0.3
109	CCOc1ccc(N(CC(=O)NCCSCc2ccc(Cl)cc2)S(C)(=O)=O)cc1	-1.9
110	CCOC(=O)C1=C(C)Nc2ccccc2N=C1NC(=O)c1ccc(Cl)c(S(=O)(=O)N2CCCC2)c1	-1.5
111	CCN(CC)S(=O)(=O)c1ccc(NC(=O)COC(=O)c2ccc(Br)o2)cc1	-0.5
112	O=C(Nc1ccc(NC(=O)c2ccc(Cl)c(S(=O)(=O)N3CCOCC3)c2)cc1)c1ccccc1	-0.4
113	COc1ccc(NC(=O)COC(=O)CC2CC3CCC2C3)c([N+](=O)[O-])c1 (configuration not stated)	0.5
114	COc1ccccc1NC(=O)CSc1n[nH]c(-c2ccccn2)n1	-2.6
115	COc1ccccc1C(=O)NCCC(=O)N1CC(=O)Nc2ccccc21	-1.5
116	CC(C)CCNC(=S)Nc1ccccc1F	-0.8

# (continued)
nr	Structure	STK33 kinase inh
117	COc1cc(/C=N/Nc2nc(C)cc(C)n2)cc(OC)c1OC	-0.5
118	COC(=O)Cn1c(=NC(=O)c2cc(-c3cccs3)nc3ccccc23)sc2cc(S(N)(=O)=O)ccc21	-2.3
119	N#Cc1nc(-c2ccc(OCc3ccccc3)cc2)oc1NCc1ccco1	-0.5
120	CCn1nc(NS(=O)(=O)c2ccc([N+](=O)[O-])cc2)c2cc3cccc(C)c3nc21	0.1
121	O=C(Cn1nc(C(=O)O)c2ccccc2c1=O)NC12CC3CC(CC(C3)C1)C2	0.3
122	CCCCOC(=O)CSC1=C(C#N)C(c2ccc3c(c2)OCO3)CC(=O)N1 (configuration not stated)	-1.1
123	O=C(Nc1ccccc1Cl)N1C2CCC1CC(O)(c1cccnc1)C2 (configuration not stated)	0.0
124	CCCCn1c(N)c(N(CCOC)C(=O)c2cc3c(s2)CCC3)c(=O)[nH]c1=O	0.4
125	Cc1ccccc1Sc1ccc([N+](=O)[O-])cn1	-1.8
126	O=C1C2CC=CCC2C(=O)N1Cc1ccccc1Cl (configuration not stated)	-0.8
127	Clc1ccc(CNCCC2=CCCCC2)cc1	-2.0
128	c1ccc(-c2noc(-c3cccnc3)n2)nc1	4.5
129	CCOC(=O)CNC(=O)CSc1nnnn1-c1cc(C)ccc1C	-0.3
130	N#CCCn1cc(C(=O)Nc2ccc([N+](=O)[O-])cc2)c(-c2cccs2)n1	0.8
